High-throughput results as filed in PubChem.
GCN5L2 inh = qHTS Assay for Inhibitors of GCN5L2; GCN5L2 HAT assay, ThioGlo1 CoA-SH fluorescence; Histone acetyltransferase KAT2A (Homo sapiens), Q92830; hit rate 0.21% among 390,000; Potency, µM (series often up to 58.9 µM), for the others: at the highest dose activity change, negative = inhibition, actives largely listed as inhibitors; AID 504327, 2011
Target sequence (Q92830 whole entry, looked up): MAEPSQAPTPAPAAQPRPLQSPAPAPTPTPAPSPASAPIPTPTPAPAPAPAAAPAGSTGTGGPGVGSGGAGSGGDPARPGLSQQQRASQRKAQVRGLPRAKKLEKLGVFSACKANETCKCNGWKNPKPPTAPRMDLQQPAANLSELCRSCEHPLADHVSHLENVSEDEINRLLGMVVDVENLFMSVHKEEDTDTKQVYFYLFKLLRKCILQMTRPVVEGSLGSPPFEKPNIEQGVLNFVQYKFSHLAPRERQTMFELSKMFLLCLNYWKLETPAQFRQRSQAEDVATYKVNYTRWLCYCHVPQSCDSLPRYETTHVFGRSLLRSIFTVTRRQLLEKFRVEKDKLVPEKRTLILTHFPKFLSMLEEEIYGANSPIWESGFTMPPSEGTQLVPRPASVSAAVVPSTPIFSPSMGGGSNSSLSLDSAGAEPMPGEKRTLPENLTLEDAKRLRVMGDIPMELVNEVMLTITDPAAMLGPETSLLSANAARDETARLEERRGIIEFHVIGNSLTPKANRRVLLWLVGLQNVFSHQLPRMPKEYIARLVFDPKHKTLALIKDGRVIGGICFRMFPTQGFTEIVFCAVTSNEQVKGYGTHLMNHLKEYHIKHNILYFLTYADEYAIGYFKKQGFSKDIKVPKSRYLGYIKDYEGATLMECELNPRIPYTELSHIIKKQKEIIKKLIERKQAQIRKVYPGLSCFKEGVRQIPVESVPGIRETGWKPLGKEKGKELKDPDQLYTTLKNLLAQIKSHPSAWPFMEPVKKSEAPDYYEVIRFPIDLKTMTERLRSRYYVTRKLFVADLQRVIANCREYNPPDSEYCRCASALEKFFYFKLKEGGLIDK
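Enzyme at 20nM final was mixed with library compounds for 15 min at room temperature. Peptide H3(1-25) at 75uM, acetyl-CoA at 70uM and ThioGlo1 at 50uM were then added. Plates were read immediately and after 20 min (Ex340nm/Em540nm).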
N370S GC mod = qHTS Assay for Inhibitors and Activators of N370S glucocerebrosidase as a Potential Chaperone Treatment of Gaucher Disease | N370S GC spleen homogenate, 4MU-glucoside fluorescence | AID 2101, 2009 | hit rate 0.092% among 330,000 | Potency, µM (top dose mostly 59.4 µM), for inactives: at the highest dose activity change, negative = inhibition, usual class: inhibitors;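 note: 0% = full enzyme activity and -100% = no enzyme basal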
The depositor's hits bear a star; ? = inconclusive; · = no result given; & = joins results of further samples; [ ] = remark or other dose. Calls come from the whole dose curve; as a rule, active = well fitted curve in the direction sought with a large enough effect; inconclusive = small, poorly fitted or top-dose-only effect, or another doubt; inactive = no such curve, though single readings can be large; an effect the other way counts as inactive or inconclusive. Unless noted, % is set by controls: 0 for no effect and ±100 for the full control effect; potency is the fitted concentration of half-maximal effect. The list is partial; most or all hits stand in other tables.

SMILES | GCN5L2 inh | N370S GC mod
CCn1c(C)[n+](CCCS(=O)(=O)[O-])c2cc(Cl)c(Cl)cc21 | -7.4% | -10.3%
Cn1c(C(=O)O)cnc1Sc1ncc(C(F)(F)F)cc1Cl | -0.9% | 10.9%
Oc1oc(-c2ccc(Br)cc2)nc1C=Nc1ccc(Br)cn1 | -7.1% | 4.5%
Cc1ccc2cccc(OCC(=O)NCc3ccco3)c2n1 | -4.5% | 15.0%
COc1ccc(/C=N\NC(=O)c2cccc(Br)c2)c(OC)c1 | 1.1% | -2.5%
Cc1nc2sc3c(c2c(=O)[nH]1)CCCC3 | 0.8% | 17.7%
CC(C(=O)NCCN1CCOCC1)c1ccc([N+](=O)[O-])cc1 (stereo not drawn) | 0.6% | -5.7%
CCSc1nnc(NC(NC(=O)c2ccco2)(C(F)(F)F)C(F)(F)F)s1 | -4.1% | -5.1%
Cc1ccccc1Cn1nnc(-c2ccc(C(=O)O)cc2)n1 | -13.0% | -8.2%
Clc1cccc(-c2noc3ncnc(Nc4ccc5c(c4)OCO5)c23)c1 | -7.1% | 1.6%
CCOC(=O)Cn1c(-c2ccccn2)nc2ccccc21 | -4.1% | 2.7%
CCCCNC(=O)[C@@H]1CSC2c3ccccc3C(=O)N21 (stereo partly drawn) | -0.8% | -24.3%

The closing five entries of the part above are carried over, then new ones follow:
SMILES | GCN5L2 inh | N370S GC mod
CCSc1nnc(NC(NC(=O)c2ccco2)(C(F)(F)F)C(F)(F)F)s1 | -4.1% | -5.1%
Cc1ccccc1Cn1nnc(-c2ccc(C(=O)O)cc2)n1 | -13.0% | -8.2%
Clc1cccc(-c2noc3ncnc(Nc4ccc5c(c4)OCO5)c23)c1 | -7.1% | 1.6%
CCOC(=O)Cn1c(-c2ccccn2)nc2ccccc21 | -4.1% | 2.7%
CCCCNC(=O)[C@@H]1CSC2c3ccccc3C(=O)N21 (stereo partly drawn) | -0.8% | -24.3%
Cc1nc2sc(C(c3ccccc3)N3CC(C)OC(C)C3)c(O)n2n1 (stereo not drawn) | -7.1% | 6.6%
Cc1cc[n+](CC(=O)c2ccc(NC(=O)c3ccccc3)cc2)cc1 | 0.7% | -4.4%
COc1cc(NC(=O)CN2C(=O)c3ccccc3C2=O)c(C(=O)O)cc1OC | -2.4% | -3.2%
CCN(CC)S(=O)(=O)c1ccc2c(c1)oc(=O)n2CC(=O)NC1CCCCC1 | -8.5% | -15.4%
O=C(COC(=O)c1ccc(F)c(S(=O)(=O)N2CCOCC2)c1)NCc1ccc2c(c1)OCO2 | -3.0% | ·
CCn1nc(C)c(/C=N/NC(=O)c2nc3nc(C)cc(C)n3n2)c1C | -1.7% | -18.1%
CCc1cc2c(-n3nc(C)cc3C)ncnc2s1 | -3.5% | 7.7%
O=C(CSc1ccc2nnc(-c3cccnc3)n2n1)Nc1ccc(F)cc1F | 2.6% | -6.4%
Cc1cccc(NC(=O)[C@H](NC(=O)[C@@H]2Cc3ccccc3CN2)c2ccccc2)c1 | -3.1% | -5.6%
Cc1ccc(C(=O)/C=C/Nc2ccc(S(=O)(=O)Nc3onc(C)c3C)cc2)cc1 | -11.0% | -13.5%
COc1cccc2cc(C(=O)N3CCN(c4ccccn4)CC3)c(=O)oc12 | -10.1% | 13.9%
O=C1C2C(c3ccccc3)C=CC(c3ccccc3)C2C(=O)N1C1CCCCC1 (stereo not drawn) | -1.8% | ?
CSCC[C@H](NC(=O)c1cccc(S(=O)(=O)N2CCCCCC2)c1)c1nc2ccccc2[nH]1 | -4.1% | ·
Cc1cc(C)nc(SCC(=O)N2CCOCC2)n1 | -4.0% | -4.9%
CCOC(=O)c1cc(-c2ccccc2)sc1NC(=O)CC(C)C | -1.4% | 10.2%
Cc1cc(OCC(=O)OCC(=O)Nc2cccnc2Cl)ccc1Cl | -6.0% | 0.9%
COc1ccc(N2CCN(Cc3cc(=O)c(OCC(=O)NC4CCCC4)co3)CC2)cc1 | -14.9% | -26.4%
COc1ccc(CCc2cc(OC)cc(=O)o2)cc1 | -21.6% | -3.6%
COc1cccc(NC(=O)Cc2ccc(NC(=O)N3CCCCc4ccccc43)cc2)c1 | -12.2% | ·
COC(=O)c1cn(-c2ccccc2)nc1-c1ccc(OC)c(OC)c1 | 1.5% | 0.3%
O=C(CN1C(=O)NC2(CCCC2)C1=O)Nc1ccc(C(F)(F)F)cc1 | -10.5% | -0.9%
Cc1cc(C)cc(NC(=O)N2C3CCCC2CC(NC(=O)C2CC2)C3)c1 (stereo not drawn) | 3.6% | 1.9%
COCCNC(=O)NC(=O)CN1CCN(C(c2ccccc2)c2ccccc2)CC1 | -4.7% | -8.9%
Cc1ccccc1C(=O)NCCOc1ccccc1Cl | -25.2% | -3.9%
O=C1Nc2ccccc2C(O)(C(=O)NCc2ccco2)N1c1ccc(Cl)c(Cl)c1 (stereo not drawn) | -15.6% | 4.8%
CCc1ccc(OCC(=O)Nc2ccc(N3CCN(S(C)(=O)=O)CC3)cc2)cc1 | 10.2% | -3.4%
NS(=O)(=O)c1ccc(CCNC(=O)c2ccc3nc(Cc4ccccc4)oc3c2)cc1 | -3.9% | ·
COC(=O)COc1ccc(C)cc1-n1nc2ccccc2n1 | -7.6% | 3.0%
Cc1cc(C)c(NC(=O)c2ccc(S(=O)(=O)N3CCOCC3)cc2)c(C)c1 | -3.3% | -2.1%
CC1CN(c2ccc(S(=O)(=O)N3CCCC3)cn2)CC(C)O1 (stereo not drawn) | -2.7% | -1.2%
O=c1oc2ccccc2c(N2CCN(c3ccccc3F)CC2)c1CN1CCCC1 | 1.4% | ·
COc1ccc(N(CC(=O)N2CCN(c3ccc(Cl)cc3)CC2)S(=O)(=O)c2c(C)noc2C)cc1 | 0.8% | -6.4%
COC(=O)[C@@H]1C[C@@]2(O)[C@@H](O)[C@@H](O)[C@@H](O)C[C@H]2N1Cc1ccc(Cl)cc1 | ? | 2.8%&10.8%
Cc1ccc(C)c(/C=C2\CCn3c2nc2cc(C(=O)O)ccc2c3=O)c1 | -8.0% | -9.6%
CCCCn1c(N)c(N(CC)C(=O)c2cc(CC)c(C)s2)c(=O)[nH]c1=O | -7.9% | -2.6%
O=C(CN(CC1CCCO1)C(=O)CNS(=O)(=O)c1ccc(F)cc1)NCc1ccco1 (stereo not drawn) | 4.4% | 8.1%
C=C(C)CNC(=S)Nc1cccc(N)n1 | 1.9% | 9.1%
Cc1cc(-c2nc(C)c(-c3nnc(SCC(=O)Nc4cc(Cl)cc(Cl)c4)n3C)s2)no1 | 0.7% | -10.2%
CCOC(=O)CCCn1c(C)nc(=O)c(-c2ccccc2)c1C | 0.9% | -1.7%
CN1CCCc2cc(C=O)ccc21 | -15.8% | 10.5%
C/C(=N\NC(=O)c1cc(-c2cccnc2)nc2ccccc12)c1ccc(O)cc1O | 2.1% | 4.0%
CC(C)c1nnc(NC(=O)CCC(=O)Nc2ccccc2)s1 | -2.3% | 1.4%
COc1cc(-c2nc(-c3ccc4c(c3)[nH]c(=O)n4C)no2)cc(OC)c1OC | -2.1% | ·
COc1ccc(CCNC(=O)c2cccc(NC3=NC4CS(=O)(=O)CC4S3)c2)c(OC)c1 (stereo not drawn) | 1.6% | -10.2%
COCCOC(=O)c1c(C)n(C)c2ccc(OC(=O)c3ccco3)cc12 | -7.9%[0.501 µM] | 5.9%
COc1ccc(S(=O)(=O)NCc2ccccn2)cc1 | -4.6% | -19.2%
COc1ccc(-n2nc(C(=O)NCC(=O)NCc3ccco3)c3ccccc3c2=O)cc1 | -5.6% | -20.6%
Cc1cc(N2CCCC2=O)cc(C)c1S(=O)(=O)NCCOc1ccccc1 | -1.2% | -1.6%

A different layout for some results above.
Compound: C/C(=N\NC(=O)c1cc(-c2cccnc2)nc2ccccc12)c1ccc(O)cc1O
  GCN5L2 inh = 2.1%; N370S GC mod = 4.0%

Compound: COc1ccc(S(=O)(=O)NCc2ccccn2)cc1
  GCN5L2 inh = -4.6%; N370S GC mod = -19.2%

Compound: CN1CCCc2cc(C=O)ccc21
  GCN5L2 inh = -15.8%; N370S GC mod = 10.5%

Carrying on:
SMILES | GCN5L2 inh | N370S GC mod
COC(=O)c1ccc(NC(=O)C(=O)N2CCN(C(=S)Nc3ccc(OC)cc3)CC2)cc1 | 29.2% | ?
COc1ccc(CNc2nc(-c3ccccc3)nc3ccccc23)cc1OC | -2.7% | 14.1µM*
Cc1cc2nc(C3CCN(Cc4nnnn4Cc4ccccc4)CC3)[nH]c2cc1C | -5.6% | 10.3%
O=C(Nc1ccc2c(c1)CN(Cc1ccc(CO)o1)CC2)c1ccc(C(F)(F)F)cc1 | -4.1% | 0.2%
O=C(NCc1ccco1)c1cc2cc(Br)ccc2o1 | -13.4% | 4.1%
CCOC(=O)CC1COCCN1Cc1cn[nH]c1-c1cc(OC)c(OC)c(OC)c1 (stereo not drawn) | -3.5% | 0.0%
C#Cc1ccc([C@H]2C=C(C(=O)N3CCN(Cc4ccccc4)CC3)O[C@@H](OCC)[C@@H]2CCCO)cc1 | -6.1% | -21.6%
Cn1c(=O)c2c(nc(/C=C/c3cccc(Cl)c3)n2C)n(C)c1=O | -16.3%&-2.3% | 14.3%&15.3%
CC(C)(C)c1ccc(Cn2nnc3c(=O)[nH]c(C4CCCN(C(=O)Cc5cccs5)C4)nc32)cc1 (stereo not drawn) | -5.7% | -2.6%
Cc1cc(/C=C(\C#N)C(=O)NCc2ccco2)c(C)[nH]1 | -7.2% | 3.3%
COc1ccc(-c2nc(-c3ccccc3OC)no2)cc1OC | -11.3% | -8.2%
CC(=O)N=c1c(C#N)cc2c(=O)n3ccccc3nc2n1Cc1ccccc1 | -2.0% | 10.5%
CCOC(=O)COc1ccc2c3c(c(=O)oc2c1)CCCC3 | -9.5% | -9.2%
O=C(CN1C(=O)NC2(CCCC2)C1=O)Nc1cccc(Cl)c1Cl | 0.5% | 0.8%
Cc1cccc(-c2nc(CS(=O)CC(=O)N3CCCCC3)c(C)o2)c1 (stereo not drawn) | -10.6% | -17.2%
CC(=O)Nc1cccc(NC(=O)CSc2nnc3ccc(-c4cccnc4)nn23)c1 | -4.8% | -4.3%
CCOC(=O)c1c(-c2ccccc2)csc1NC(=O)C(C)NCc1ccco1 (stereo not drawn) | -10.4% | -14.3%
O=C(CN1C(=O)NC2NC(=O)NC21)N/N=C/c1ccccc1O (stereo not drawn) | -0.4% | 0.7%
CCOC(=O)c1c(O)c2ccccc2oc1=O | -3.5% | 21.0%
Cc1cc(C)c2nc(-c3ccccn3)cc(C(=O)n3cccn3)c2c1 | -6.6% | 11.4%
Cc1cccc(N2CCN(S(=O)(=O)c3c(C)noc3/C=C/N(C)C)CC2)c1C | -7.2% | -5.1%
CCC1(c2ccccc2)NC(=O)N(CC(=O)NCC2COc3ccccc3O2)C1=O (stereo not drawn) | 1.2% | -6.3%
COc1cc(C(=S)N2CCOCC2)cc(OC)c1OC(=O)Cc1ccc(F)cc1 | -3.8% | 2.8%
Cc1ccc(NC(=O)CCCc2ccccc2)nc1 | -3.3% | 2.6%
O=C(NCCc1ccccc1)C1CC(=O)N(C2CCCCC2)C1 (stereo not drawn) | 0.6% | -12.1%
CC1CCCC(NC(=O)c2ccc3c(c2)NC(=O)CS3)C1C (stereo not drawn) | -5.9% | -22.3%
COC(=O)c1ccccc1NC(=O)CN1C(=O)CSC1=O | -6.7% | -7.6%
C=CCn1c(SCC(=O)Nc2c(C)n(C)n(-c3ccccc3)c2=O)nc2scc(-c3ccccc3)c2c1=O | -3.8% | 6.1%
O=c1c2oc3ccccc3c2ncn1Cc1ccc(Cl)cc1 | -6.3% | 12.4%
O=C(NCCc1nc2ccccc2[nH]1)/C(=C/c1ccc2c(c1)OCO2)NC(=O)c1ccccc1 | 0.9% | -11.0%
COC(=O)C1=C(N)Oc2cc(C)n(CCc3ccccc3)c(=O)c2C1c1cccnc1 (stereo not drawn) | -2.1% | 9.2%
CC(C)c1ccc(OCC(O)CN2CCCC2)cc1 (stereo not drawn) | -24.8% | -4.2%
CN(C(=O)COC(=O)c1ccc([N+](=O)[O-])cc1)c1ccccc1 | -4.0% | -1.9%
O=C(Cn1cncn1)c1ccc(Cl)cc1 | -9.2% | -8.8%
CN(C)CCCN1C(=O)c2oc3ccc(F)cc3c(=O)c2C1c1cccnc1 (stereo not drawn) | -20.3% | -4.9%
Cc1noc(C)c1C(=O)Nc1ccc(F)cc1F | -5.0% | -2.0%

Ordered by heavy-atom count (ascending): part of the list above
SMILES | GCN5L2 inh | N370S GC mod
CN1CCCc2cc(C=O)ccc21 | -15.8% | 10.5%
CCOC(=O)COc1ccc2c3c(c(=O)oc2c1)CCCC3 | -9.5% | -9.2%
Clc1cccc(-c2noc3ncnc(Nc4ccc5c(c4)OCO5)c23)c1 | -7.1% | 1.6%

(list continues)
SMILES | GCN5L2 inh | N370S GC mod
CCN(CC(=O)NCc1ccc(Cl)cc1)S(=O)(=O)c1ccc(F)cc1 | 20.6% | -15.7%
O=C(CN(Cc1ccccc1)S(=O)(=O)c1ccccc1)NC1CC1 | 5.0% | 1.8%
O=C(Nc1ccc(Cl)c(Cl)c1)c1csc(-c2ccccc2)n1 | -16.0% | 8.0%
C/C(=N\NC(=O)NC1CCCCC1)c1ccc(Cl)s1 | -5.3% | -6.8%
NC(=O)C1CC=CCC1C(=O)OCC(Cl)=C(Cl)Cl (stereo not drawn) | -9.6% | 13.2%
CCS(=O)(=O)c1ccc2oc(Nc3cc(C)cc(C)c3)nc2c1 | -11.3% | -19.2%
